Mtb hypoxia rep – PubChem AID 1159583; M. tuberculosis hypoxia-regulated fluorescent reporter, fluorescence; fluorescence inhibition, % (concentration not given with the values); actives 0.1% (n = 300,000);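 active means 35 to 45% if threefold the growth effect, above 45% if 1.5-fold the growth effect; inactive means the rest, general growth blockers included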;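 further: wells of about 50 µL received 100 nL stock; 0% = vehicle wells and 100% = reference inhibitor wells; whole bacteria with a GFP reporter of the hypoxia response; strong numbers were not always called active; many hits fall short of the cut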
Sa RN4220 lethal – growth inhibition of S. aureus RN4220, primary screen, OD600. 16 h. actives 0.33% (n = 330,000). AID 1259311, 2017. inhibition, % (test concentration not listed);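 active means z-score of -3 or lower and OD600 up to 0.18 on both plates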;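 further: plate controls were untreated cells for no effect and reference antibiotic for full effect; stock transfer was 100 nL into about 80 µL; one replicate is shown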
PrP 5UTR inh – inhibition of PrP 5' UTR reporter expression. cell-based PrP 5' UTR mRNA reporter, plate reader. inhibition, % (no concentration beside the values). actives 0.35% (n = 340,000);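 active means every replicate at 50% or more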;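 further: 0 = median of the neutral control wells; tested in H4 reporter cells; numbers are from one replicate; inactives centre near -14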
BJeLR viability – MLPCN primary cell-based screen for lethality selective to Ras in HRASV12 cells; BJeLR (HRASV12) viability, CellTiter-Glo ATP luminescence, 48 h; reference of the scale not given here; inhibition, % (concentration not given with the values); actives 0.17% (n = 300,000); AID 1554, 2009;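 active means replicate mean above 50%; inconclusive means above 50% but judged a plate artefact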;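 further: 50 nL library stock added to about 25 µL; numbers are from one replicate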
Sa ugtP lethal – growth inhibition of ugtP-null S. aureus, primary screen, RN4220 ugtP deletion, OD600; actives 0.54% (n = 330,000); 16 h; some inactives read as strong as hits; AID 1259309, 2017; growth inhibition, % (no concentration beside the values);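 active means z-score under -3 and OD600 up to 0.15 on both plates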;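 further: plate controls were untreated wells for no effect and antibiotic for full effect; wells of about 80 µL received 100 nL stock; the first replicate is given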
Autofluor counter – compound fluorescence in toxin protease inhibitor counterscreen; compound autofluorescence counterscreen, microsphere flow cytometry; active compounds read high; fluorescence intensity (no concentration beside the values); actives 3.1% (n = 360,000);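 active means at least 3 SD above the mean of all compounds, about 16000 in these data; inconclusive means too few beads counted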;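 further: 100 nL of 1 mM stock went into each well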
Mtb hypoxia rep growth – further read-out of Mtb hypoxia rep, marked with its call; growth inhibition, %; measured here: M. tuberculosis growth (absorbance);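 0% = vehicle and 100% = reference antibiotic; read after six days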
* hit, by the source's call; ? = inconclusive; / = not tested or not shown.

cpd	compound	Mtb hypoxia rep	Mtb hypoxia rep growth	Sa RN4220 lethal	PrP 5UTR inh
1	CCCc1ccc(-c2cc(C(=O)NCCc3ccc(S(N)(=O)=O)cc3)c3ccccc3n2)cc1	1	3	6.7	-95
2	COc1cc(S(=O)(=O)n2nc(C)cc2C)c(OC)cc1Cl	4	1	5.5	-14
3	Cn1cc(SCC(=O)Nc2ccc3c(c2)OCCO3)c2ccccc21	3	2	7.7	-46
4	N/C(=N\OC(=O)Nc1ccccc1)c1ncc([N+](=O)[O-])s1	/	/	/	-29
5	COc1cc(OC)cc(-c2nnc(SCC(=O)N3CCCc4ccccc43)o2)c1	/	/	-5.4	-27
6	CC(C)c1onc(C(=O)N2CCCCCC2)c1[N+](=O)[O-]	/	/	/	-25
7	Cc1cc(-n2c(=S)sc3c(=O)n(-c4ccc(F)cc4)c(SCC(=O)O)nc32)ccc1Cl	1	-3	5.4	-11
8	C=CCNCCCCOc1cccc(Br)c1	8	5	-1.6	-12
9	CCc1nnc(NS(=O)(=O)c2ccc(NC(=S)NC(=O)/C=C/c3cccs3)cc2)s1	-12	-5	1.4	-14
10	OC(c1ccc(Cl)cc1)c1nnc(-c2ccccc2)o1 (stereo not given)	/	/	3.0	-23
11	O=C(NCc1ccncc1)Nc1cc(Cl)ccc1Cl	-3	6	2.7	-28
12	CC(C)c1c(C(=O)NN=Cc2ccc(OCc3ccccc3)cc2)nnn1-c1nonc1N	3	-8	0.6	/

cpd	BJeLR viability	Sa ugtP lethal	Autofluor counter
1	4	28	22125*
2	0	18	7057
3	-5	8	6248
4	13	/	4631
5	-4	-5	2669
6	3	/	2549
7	-4	16	3210
8	-3	-1	2078
9	-4	27	3829
10	3	-12	4720
11	-2	4	2086
12	/	7	/

The list continues:
cpd	compound	Mtb hypoxia rep	Mtb hypoxia rep growth	Sa RN4220 lethal	PrP 5UTR inh
13	COc1ccc(C(=O)NC(=S)NNC(=O)CCc2ccccc2)cc1	16	8	39	-5
14	CC[C@@H]1C(c2ccc(F)cc2)=NN(c2ccc(Br)cc2)[C@H]1C(=O)N1CCOC1=O	-9	8	-6.4	-9
15	O=C(O)CNC(=O)CCn1nnc2ccccc2c1=O	11	17	5.4	-6
16	O=C(NNC(=O)c1ccccc1F)c1ccc(Cl)c(S(=O)(=O)N2CCOCC2)c1	-2	1	8.6	1
17	CCCc1noc2c1/C(=N\O)CC(c1ccccc1)C2 (stereo not given)	/	/	/	-14
18	COc1ccc(C(NC(C)=O)c2cc(Cl)c3cccnc3c2O)cc1OC (stereo not given)	/	/	/	-1
19	Cc1cccc(C(=O)NNC(=O)C2CCN(C(=O)OC(C)(C)C)CC2)c1	2	-1	0.9	-3
20	O=C(COc1ccc(Cl)cc1Cl)NNC(=S)Nc1ccc(F)cc1	9	4	4.9	-16
21	COc1ccc(C(=O)Nc2ccc(F)cc2F)cc1	9	11	1.8	-74
22	CCN1CCN(c2ccc(NC(=O)c3ccc(OC)c(S(=O)(=O)N4CCCC4)c3)cc2)CC1	12	-4	3.2	-25
23	O=C1OCC(c2ccc(Cl)s2)=C1c1ccccc1[N+](=O)[O-]	-6	-8	-0.2	-11
24	CCOC(=O)C1(Cc2cccc(OC)c2)CCN(Cc2cccc(OCC)c2O)CC1	10	3	-0.1	-11

cpd	BJeLR viability	Sa ugtP lethal	Autofluor counter
13	4	16	10532
14	/	57	3554
15	15	4	?
16	/	12	/
17	4	/	2821
18	16	/	4155
19	0	4	5549
20	-15	-9	16581*
21	5	-1	5544
22	/	6	3918
23	7	9	4123
24	-1	10	4178

Reformatted bar-delimited: part of the list above
nr | Structure | Mtb hypoxia rep | Mtb hypoxia rep growth | Sa RN4220 lethal | PrP 5UTR inh | BJeLR viability | Sa ugtP lethal | Autofluor counter
14 | CC[C@@H]1C(c2ccc(F)cc2)=NN(c2ccc(Br)cc2)[C@H]1C(=O)N1CCOC1=O | -9 | 8 | -6.4 | -9 | / | 57 | 3554
15 | O=C(O)CNC(=O)CCn1nnc2ccccc2c1=O | 11 | 17 | 5.4 | -6 | 15 | 4 | ?
16 | O=C(NNC(=O)c1ccccc1F)c1ccc(Cl)c(S(=O)(=O)N2CCOCC2)c1 | -2 | 1 | 8.6 | 1 | / | 12 | /

Next section:
cpd	compound	Mtb hypoxia rep	Mtb hypoxia rep growth	Sa RN4220 lethal	PrP 5UTR inh
25	COc1cc(NC(=O)C2CCCN(S(=O)(=O)c3cccc4nsnc34)C2)cc(OC)c1 (stereo not given)	/	/	1.1	-10
26	NC1=NC(c2ccccc2)CC(=O)N1 (stereo not given)	17	12	2.4	-13
27	NC(=S)NNc1c(F)c(F)c(F)c(F)c1F	4	7	4.8	-25
28	O=C1CN(C(=S)NC(=O)c2ccccc2[N+](=O)[O-])CCN1	10	-17	2.3	1
29	Cc1[nH]cnc1C(=O)N/N=C/c1ccc([N+](=O)[O-])s1	/	/	/	4
30	Cc1ccc2cc(C#N)c(NCCCNC(=O)C3CCCO3)nc2c1 (stereo not given)	6	14	5.5	-9
31	CCC(C)C(C(=O)N1CCN(C(=O)OC(C)(C)C)CC1)n1cc(C(CC(C)C)NC(=O)OC(C)(C)C)nn1 (stereo not given)	2	2	4.1	/
32	COc1ccc(S(=O)(=O)N2CCCN(S(=O)(=O)c3ccc(OC)c(C)c3)CC2)cc1C	4	8	8.2	-32
33	O=C1CCC(C(=O)OCc2nnc(-c3ccccc3)o2)=NN1	9	-5	2.4	-18
34	CC(=O)c1ccc(N2CCN(S(=O)(=O)c3ccc(-c4cc(C)no4)s3)CC2)cc1	1	-5	2.1	-6
35	N#C/C(=C\c1c[nH]c2ccc(Br)cc12)c1ccccn1	-7	-24	-2.0	/
36	CCCCOC(=O)c1ccc(NC(=O)c2cc(Cl)ccc2OC)cc1	/	/	-9.0	-16

cpd	BJeLR viability	Sa ugtP lethal	Autofluor counter
25	6	0	4723
26	/	0	3806
27	-7	-1	4555
28	1	10	4573
29	3	/	3490
30	3	-3	5475
31	/	0	/
32	2	2	9614
33	0	3	6389
34	6	-1	6885
35	2	77	3892
36	-1	-17	2325

Next entries follow.
cpd	compound	Mtb hypoxia rep	Mtb hypoxia rep growth	Sa RN4220 lethal	PrP 5UTR inh
37	O=Cc1cccn1Cc1ccc(Cl)cc1Cl	4	-1	5.5	-5
38	C[C@@H](C(=O)NNC(=O)c1ccc(Cl)cc1)N1C(=O)C2CC=CCC2C1=O (stereo not given in full)	8	-1	-1.7	-15
39	CN(C)/C=C/C(=O)c1ccccc1	-4	0	6.9	6
40	Cc1ccc(NC(=O)CN(C)C(=O)c2ccc(C(F)(F)F)cc2)cc1	-16	5	-0.5	-1
41	Nc1c(CO)nnn1-c1ccccc1	1	4	1.9	-36
42	Oc1ccc(Br)cc1CN1CCCCCCC1	3	11	3.7	-4
43	Cc1ccccc1-c1nc(CS(=O)CC(=O)NC2CCCC2)c(C)o1 (stereo not given)	0	9	-2.1	-23
44	CCOc1cc(NC(=S)NCC(C)C)c(OCC)cc1NC(=O)c1ccco1	6	4	13	-15
45	COc1ccc(-c2c(C#N)c(N)nc3c2CCc2ccccc2-3)cc1OC	3	20	1.0	/
46	CS(=O)(=O)Nc1ccc(-c2nnc3n2CCCCC3)cc1	-4	-1	-1.9	-8
47	CCN(CC)S(=O)(=O)c1ccc(OCC(=O)NC2CCS(=O)(=O)C2)c([N+](=O)[O-])c1 (stereo not given)	13	7	1.6	-18
48	CC1=CCC2C(=O)N(c3ccc(OC(=O)c4ccco4)cc3)C(=O)C2C1 (stereo not given)	7	0	2.2	-6

cpd	BJeLR viability	Sa ugtP lethal	Autofluor counter
37	3	-9	23592*
38	/	-8	3437
39	2	0	3339
40	-2	-1	2056
41	6	2	10102
42	-4	-28	10902
43	-2	-7	/
44	-1	4	2554
45	8	-21	/
46	-3	-1	3834
47	0	2	4274
48	0	5	3407

Another view of part of the listing above:
no. | smiles | Mtb hypoxia rep | Mtb hypoxia rep growth | Sa RN4220 lethal | PrP 5UTR inh | BJeLR viability | Sa ugtP lethal | Autofluor counter
36 | CCCCOC(=O)c1ccc(NC(=O)c2cc(Cl)ccc2OC)cc1 | / | / | -9.0 | -16 | -1 | -17 | 2325
37 | O=Cc1cccn1Cc1ccc(Cl)cc1Cl | 4 | -1 | 5.5 | -5 | 3 | -9 | 23592*
38 | C[C@@H](C(=O)NNC(=O)c1ccc(Cl)cc1)N1C(=O)C2CC=CCC2C1=O (stereo not given in full) | 8 | -1 | -1.7 | -15 | / | -8 | 3437
39 | CN(C)/C=C/C(=O)c1ccccc1 | -4 | 0 | 6.9 | 6 | 2 | 0 | 3339
40 | Cc1ccc(NC(=O)CN(C)C(=O)c2ccc(C(F)(F)F)cc2)cc1 | -16 | 5 | -0.5 | -1 | -2 | -1 | 2056
41 | Nc1c(CO)nnn1-c1ccccc1 | 1 | 4 | 1.9 | -36 | 6 | 2 | 10102
42 | Oc1ccc(Br)cc1CN1CCCCCCC1 | 3 | 11 | 3.7 | -4 | -4 | -28 | 10902
43 | Cc1ccccc1-c1nc(CS(=O)CC(=O)NC2CCCC2)c(C)o1 (stereo not given) | 0 | 9 | -2.1 | -23 | -2 | -7 | /
44 | CCOc1cc(NC(=S)NCC(C)C)c(OCC)cc1NC(=O)c1ccco1 | 6 | 4 | 13 | -15 | -1 | 4 | 2554
45 | COc1ccc(-c2c(C#N)c(N)nc3c2CCc2ccccc2-3)cc1OC | 3 | 20 | 1.0 | / | 8 | -21 | /
46 | CS(=O)(=O)Nc1ccc(-c2nnc3n2CCCCC3)cc1 | -4 | -1 | -1.9 | -8 | -3 | -1 | 3834
47 | CCN(CC)S(=O)(=O)c1ccc(OCC(=O)NC2CCS(=O)(=O)C2)c([N+](=O)[O-])c1 (stereo not given) | 13 | 7 | 1.6 | -18 | 0 | 2 | 4274
48 | CC1=CCC2C(=O)N(c3ccc(OC(=O)c4ccco4)cc3)C(=O)C2C1 (stereo not given) | 7 | 0 | 2.2 | -6 | 0 | 5 | 3407

Continued:
cpd	compound	Mtb hypoxia rep	Mtb hypoxia rep growth	Sa RN4220 lethal	PrP 5UTR inh
49	CC1CC=CC2C1C(=O)N(Cc1ccccc1)C2c1ccc(-c2ccoc2)cc1F (stereo not given)	-4	8	1.4	/
50	Cc1ccc(S(=O)(=O)CC(=O)NCc2ccccc2)cc1	1	-2	1.7	-20
51	O=C(Cc1ccc(Cl)cc1Cl)Nc1ccc(OC(F)F)c(Cl)c1	-4	-2	4.3	-13
52	Cc1nnc(NC(=O)CSc2ccc(-c3ccccn3)nn2)s1	68*	-7.4*	4.0	/
53	Cc1csc(NC(=O)CSc2nnc(NC(=O)COc3ccccc3)s2)n1	8	-1	6.2	-36
54	O=C(NCc1cccnc1)C1CC(=O)N(CCc2ccccc2)C1 (stereo not given)	3	5	1.9	-15
55	O=C(N/N=C\c1ccccn1)c1ccccc1O	/	/	/	-26
56	CC(=O)Nc1cccc(N)c1	0	1	5.0	-33
57	CCCCCc1cc(O)c2c(C)cc(=O)oc2c1	0	6	-8.1	-23
58	CC(Oc1ccccc1)C(=O)NC1CCCCCCC1 (stereo not given)	/	/	7.7	-11
59	O=C1CCCN1CCCNC(=S)Nc1cccc2ccccc12	10	1	4.5	13
60	Cc1ccc(S(=O)(=O)NCCc2cccs2)cc1	16	21	3.4	-28
61	CS(=O)(=O)N1CCC(C(=O)N2CCN(c3cccc(Cl)c3)CC2)CC1	-1	1	2.0	6
62	CCc1ccc(OCCNc2cc(N3CCNC(C)C3)ccc2[N+](=O)[O-])cc1 (stereo not given)	/	/	39	-4
63	Cc1nc(-c2ccncc2)nc(NCCNc2ccc(C(F)(F)F)cn2)c1Cl	-6	-5	-5.0	-8

cpd	BJeLR viability	Sa ugtP lethal	Autofluor counter
49	/	14	/
50	3	1	5885
51	-15	-14	8984
52	8	-7	/
53	-8	-11	8442
54	-4	5	5802
55	-6	/	1874
56	/	9	5964
57	8	-24	23187*
58	0	-1	5450
59	5	3	3536
60	-10	-1	4058
61	4	0	3188
62	/	43	3812
63	1	-19	6178
